RanGTP-Impb inh = inhibitors of RanGTP-importin-beta interaction, primary screen, biochemical, FRET, CFP-Ran, YFP-importin-beta, homogeneous; Ran GTPase (GTP-bound) - importin-beta complex; cell-free CFP-Ran/YFP-importin-beta FRET ratio; inhibition, % (test concentration not listed); actives 1.1% (n = 300,000); AID 2216, 2009;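 active means most replicates above 15%; inconclusive means exactly half above 15%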;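 further: 0% = DMSO wells and 100% = Ran loaded with GDP instead of GTP; wells of about 40 µL received 100 nL stock; the first replicate is given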
A1 inh = caspase 3/7 activation in MEF A1-2A-BIM cells, primary screen, A1 inhibitor project, cell-based, luminescence, HTS | Caspase-Glo 3/7 luminescence, 3 h; percent of clofoctol response, vehicle zero | caspase activation, % (no concentration beside the values) | actives 0.066% (n = 330,000) | AID 2462, 2010;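 active means over half of replicate activation scores above 10%, or exactly half above 10 with the replicate mean above 10; inconclusive means replicate mean below 10 yet half the replicates above 10; inactive means over half of replicates below 10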;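 further: wells of about 30 µL received 50 nL stock; many hits fall short of the cut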
T cruzi repl = inhibitors of intracellular T. cruzi growth, primary screen, luminescence, NIH3T3 host cells; actives 1.4% (n = 300,000); T. cruzi beta-gal in NIH3T3, 90 h; inhibition, % (test concentration not listed); AID 1885, 2009;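 active means mean inhibition across valid replicates above about 55%, limit read from the data; inconclusive means mean below that limit but half or more replicates reach it; inactive means mean below it, under half of replicates reach it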;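 further: signal also drops with host cell toxicity which is not excluded here; 0% = plate median of DMSO wells and 100% = zero luminescence signal; higher percent means less beta-gal luminescence so fewer parasites; stock transfer was 50 nL into about 50 µL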
Beta apoptosis = inhibitors of cytokine-induced beta cell apoptosis, primary screen, luminescence | INS-1E cytokine-induced death, ATP luminescence, 48 h; percent of positive-control rescue, neutral wells zero | protection from apoptosis, % (concentration not given with the values) | actives 0.8% (n = 300,000) | AID 435005, 2010;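 active means all replicates at 75% or more, or half of them and the mean; inconclusive means half reach 75% but not the mean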;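 further: 0% = cytokine-treated negative control wells and 100% = positive control rescue; higher means more ATP so stronger rescue from cytokine killing; wells of about 40 µL received 100 nL stock; the first replicate is given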
MLL AF4-AF9 inh = inhibitors of AF4 peptide binding to AF9, primary screen, biochemical, AlphaScreen, biotin-AF4 peptide, FLAG-AF9, single point. Protein AF-9 (Homo sapiens), P42568. inhibition, % at 10 µM. actives 0.47% (n = 350,000);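 active means every replicate reaching a set inhibition limit, whatever the replicate mean, cut at about 25% in these data; inconclusive means mean inhibition reaches that limit but some replicates miss it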;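 further: 0% = plate neutral control median and 100% = total signal loss; the record names both 10 and 1 µM as test concentration; the first replicate is given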
Target sequence (P42568 whole entry, looked up): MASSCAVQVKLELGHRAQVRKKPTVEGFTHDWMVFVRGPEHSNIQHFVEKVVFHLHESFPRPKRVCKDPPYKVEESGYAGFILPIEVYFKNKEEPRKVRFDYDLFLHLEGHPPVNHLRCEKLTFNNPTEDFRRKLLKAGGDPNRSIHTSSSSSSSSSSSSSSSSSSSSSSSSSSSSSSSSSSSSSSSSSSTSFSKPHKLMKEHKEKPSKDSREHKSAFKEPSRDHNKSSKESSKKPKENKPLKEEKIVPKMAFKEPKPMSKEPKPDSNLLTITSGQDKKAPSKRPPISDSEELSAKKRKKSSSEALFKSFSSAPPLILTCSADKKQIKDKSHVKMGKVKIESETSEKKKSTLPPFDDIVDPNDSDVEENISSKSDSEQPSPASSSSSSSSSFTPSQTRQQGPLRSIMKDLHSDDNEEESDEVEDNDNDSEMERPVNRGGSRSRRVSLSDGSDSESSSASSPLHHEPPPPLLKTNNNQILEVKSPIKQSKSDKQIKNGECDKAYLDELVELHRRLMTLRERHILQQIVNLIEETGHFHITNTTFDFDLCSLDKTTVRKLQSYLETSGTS
LANA-H2A inh = blockers of LANA interaction with H2A/H2B – biochemical, FP readout, HTS, primary screen; Protein LANA1 (Human herpesvirus 8 type P (isolate GK18)), Q9QR71; cell-free LANA-H2A/H2B peptide, fluorescence polarization; inhibition, % (test concentration not listed); actives 0.6% (n = 320,000); in the data active means inhibition mostly above about 10%, no sharp cut-off; inactive means mostly below about 6.7%;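 further: stock transfer was 7.5 nL into about 10 µL; 0% = median of vehicle wells and 100% = median of positive control wells; one replicate is shown; the record names a cut of 25% in any replicate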
Calb FLC = C. albicans growth inhibition with fluconazole, primary screen, CaCi-2 strain, Alamar Blue fluorescence; C. albicans CaCi-2 (fluconazole-resistant clinical isolate) + fluconazole, 48 h; growth inhibition, % (no concentration beside the values); AID 1979, 2009; actives 0.57% (n = 300,000);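 active means most replicates above 75%; inconclusive means exactly half above 75%; inactive means most below 75%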;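 further: all wells also contain fluconazole at 8 µg/ml as a sub-toxic cotreatment; 0% = median of DMSO wells and 100% = median of geldanamycin control wells; wells of about 8 µL received 7.5 nL stock; the first replicate is given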
Vif A3G = inhibitors of Vif binding to APOBEC3G peptide, primary screen, biochemical, TR-FRET, GST-Vif 1-94, biotin-A3G peptide, dose response retest (AID 1117319) | Virion infectivity factor (Human immunodeficiency virus type 1 group M subtype B (isolate … | TR-FRET GST-Vif / biotin-A3G peptide binding; higher % means a stronger effect; test concentration not given here; strong numbers were not always called active | one-dose inhibition, %; IC50 in µM for titrated hits | actives 0.57% (n = 260,000);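 active means above the screen mean plus three standard deviations and confirmed in dose response; inconclusive means results disagree or hit not tested in dose response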;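 further: Vif residues 1-94 fused to GST binding biotinylated APOBEC3G peptide 110-148; 0% = full assay without inhibitor and 100% = GST in place of GST-Vif; retest series ran down from 100 µM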
An asterisk follows results filed as active; ? = inconclusive; nt = no result given; & = joins results of further samples. Rows were taken by chance; any-hit rate near 4.3%.

SMILES	RanGTP-Impb inh	A1 inh	T cruzi repl	Beta apoptosis	MLL AF4-AF9 inh	LANA-H2A inh	Calb FLC	Vif A3G
C[C@@H]1CN(C(=O)c2nc3ccc(Cl)cn3c2CN[C@H]2CCCCNC2=O)C[C@H](C)O1	3.1	0.4	-19	-5	nt	2.4	-2	10%
O=C(c1cccs1)n1cc(C(=S)N2CCOCC2)c2ccccc21	8.0	-0.9	-20	1	nt	-2.6	?	20%
CC1(C)C(C=C(Cl)Cl)C1C(=O)N(Cc1ccc(Cl)cc1)C1CCS(=O)(=O)C1 (stereo not given)	2.0	0.8	30	-9	6.9	-3.0	29	0%
N#Cc1c(NC(=O)COC(=O)c2ccc(F)cc2)sc2c1CCC2	-2.6	0.4	-6	-1	-1.0	-6.8	5	17%
Nc1nonc1NC(=O)NN=C1CCCCC1	0.2	-0.3	-8	-7	-20	-2.4	1	1%
CN(C)c1ccc(C=Nc2ccccc2C(N)=O)cc1	nt	-7.4	nt	8	nt	-6.4	nt	-3%
COc1ccccc1CNC(=O)C1(NC(=O)Nc2ccc(C)cc2)CCCCC1	3.0	0.6	4	-2	-0.9	1.9	2	-1%
O=C(c1ccco1)N1CCN(Cc2nnc(-c3cccc(Cl)c3)o2)CC1	0.0	1.3	-3	3	1.6	3.3	-3	nt
CC(C)c1ccc(NC(=O)CSc2n[nH]c(=O)n2-c2ccc3c(c2)OCCO3)cc1	-2.8	-0.2	15	-6	7.8	-9.7	2	6%
CC1(C2CC(C(F)(F)F)n3nc(C(=O)O)cc3N2)CC1 (stereo not given)	-0.1	0.3	-13	-5	-2.1	2.7	-1	-8%
Cc1cccc(NC(=O)c2ccoc2C)n1	0.1	0.6	-2	nt	nt	0.9	1	-4%
CCCC(=O)Nc1ccc(C(=O)NCC2CCCO2)cc1 (stereo not given)	9.6	-0.3	-7	0	nt	-1.6	3	16%
Cc1ccc2nc(SCc3nc4c(cnn4-c4ccccc4)c(=O)[nH]3)[nH]c2c1	0.4	-0.9	7	17	nt	5.5	11	-4%
COc1ccc(-n2c(SCC(=O)Nc3cc(C)on3)nc3c([nH]c4ccccc43)c2=O)cc1OC	-0.5	0.5	-5	-7	-1.1	3.0	0	nt
Cc1ccc(N(CC(=O)NC(C)(C)C)C(=O)CNC(=O)c2cccs2)c(C)c1	1.6	-0.4	-7	-3	-1.5	1.2	0	4%
O=C(CCN=C1NS(=O)(=O)c2ccccc21)OCC(=O)c1ccc(F)c(F)c1	8.0	0.0	-14	0	4.9	-0.4	-1	-2%
COc1ccc(/C(N)=N/OC(=O)Cc2ccccc2OC)cc1	5.5	-0.2	-19	-1	nt	-0.7	-16	-4%
CCc1ccc(/C(C)=N/Nc2cc(Cl)nc(C)n2)cc1	-3.5	0.6	-9	0	nt	-2.1	35	11%
CNc1ccc(Br)cc(C(=O)/C=C/c2cccc(OC)c2OC)c1=O	3.3	0.6	47	-10	nt	-0.8	-3	4.1µM*
O=C(OCC(=O)c1cccs1)C1=COCCO1	13	-1.9	-15	-1	nt	1.4	-2	-3%
O=C(NC1CCCCC1)c1ccc2[nH]c(=O)c(=O)[nH]c2c1	-1.2	1.0	-2	2	1.6	-3.0	nt	nt
CC(C)n1c(O)c(/C=C2\C=NN=C2c2ccccc2)sc1=S	-2.7	0.5	14	-9	-5.4	12*	-7	nt
Cc1ccc(C)c(-c2cc(C(=O)Nc3nccs3)c3ccccc3n2)c1	8.9	-0.2	18	7	-0.7	-13	11	?
CCOCCCNC(=O)c1cc2c(s1)-c1ccccc1SC2	1.1	0.0	-8	-3	-2.5	-0.7	2	3%
CCCNC(=O)OC[C@H]1O[C@H](CCO/N=C/c2ccc(C(=O)N3[C@H](c4ccc(C)cc4)[C@@H](C)CC[C@H]3C(=O)OC)cc2)C=C[C@@H]1Oc1ccc(OC)cc1	-1.4	-1.4	54	-1	nt	5.2	-8	-6%
N#CCN1CCN(CCC(=O)Nc2ccc(OCc3ccccc3)cc2)CC1	-1.8	0.0	3	-1	nt	2.0	-12	-1%
O=C(Nc1ccncc1)OCc1ccccc1	-1.3	-1.1	-1	nt	4.0	-6.1	0	nt
Cc1ccc(N2CCN(S(=O)(=O)c3ccc(Cl)s3)CC2C)cc1 (stereo not given)	2.7	0.5	31	3	2.2	-2.6	2	nt
COc1ccc(CCn2c(SCCN3CCCCC3)nc3ccccc3c2=O)cc1OC	2.3	-0.5	67*	1	9.8	2.1	-19	nt
CN(C)CCN(C(=O)c1ccc(S(=O)(=O)N2CCc3ccccc32)cc1)c1nc2ccc(F)cc2s1	1.1	0.0	63*	8	2.5	2.4	2	2%
CC1(C)CC2CC(C)(CN2Cc2cccc([N+](=O)[O-])c2)C1 (stereo not given)	0.1	-0.5	-5	-10	11	6.7	-5	nt
COc1ccc(CNC(=O)C23CN(Cc4ccccc4)CC2C(c2ccc([N+](=O)[O-])cc2)=NO3)cc1 (stereo not given)	-2.2	?	19	-3	2.3	4.7	24	0%
Cc1cccc(-c2nnc(SCC#N)n2-c2cccc(Cl)c2)c1	?	0.4	6	4	nt	-3.3	10	?
O=c1cc(-c2ccc(O)c(O)c2)oc2c1ccc1ccccc12	nt	-0.5	nt	-6	-2.0	8.3	nt	nt
Cc1ccc(S(=O)(=O)N/N=C/c2ccc(OS(=O)(=O)c3ccc(C)c([N+](=O)[O-])c3)cc2)cc1	-4.4	-0.4	nt	-6	nt	7.5	14	1%
CCOc1ccc(C(=O)COC(=O)C2COc3ccccc3O2)cc1 (stereo not given)	nt	-1.6	nt	0	?	0.4	nt	nt
Cc1ccc(N(CC(=O)NC2CCCCC2)C(=O)CCC(=O)Nc2nccs2)cc1	0.0	0.4	5	12	0.2	-1.6	-6	nt
CC(C)Oc1ccc(NC(=O)Oc2ccccc2)cc1	-1.8	-6.9	13	-4	nt	1.6	-7	?
COc1cc2c(cc1OC)-c1cc(Nc3ccc(C)cc3)nc(=O)n1CC2	3.9	-0.1	2	11	6.8	4.4	-8	0%
COc1ccc(C2CCCN2C(=O)Nc2ccc(Cl)cc2)cc1OC (stereo not given)	0.7	-0.4	7	-1	14	1.8	3	0%
Cc1ccc2c(cnn2C(=O)CCC(=O)NCc2cccc(Br)c2)c1	6.3	nt	-19	-6	-11	-2.3	5	nt
CC(=O)Nc1sc2c(c1-c1nc3ccccc3s1)CN(C(C)C)CC2	nt	0.9	nt	97*	-4.2	0.0	nt	nt
COCC(=O)N(CCN(C)C)Cc1cc2cc3c(cc2nc1Cl)OCO3	-4.8	1.5	-10	-9	-0.9	0.4	-11	-1%
CCCN(C(=O)Cc1nc(N)n[nH]1)C1(C(=O)Nc2ccccc2C)CCCCC1	-4.3	0.2	-4	-5	nt	-0.5	4	0%
COc1cc(CCC(=O)Nc2c(C(=O)N3CCN(c4ccccc4)CC3)oc3ccccc23)on1	1.7	0.4	15	2	6.7	4.3	2	nt
CCOC(=O)CSc1nc2cccnc2n1C	-2.8	-0.9	-12	4	-2.2	0.3	20	4%
CCOC(=O)N1CCN(C(=O)CSc2nc3c(cnn3-c3ccccc3)c(=O)[nH]2)CC1	4.1	0.5	0	7	-4.9	8.5	-2	13%
CN(C)c1ccc(NC(=O)c2cccc(C(=O)Nc3ccc(N(C)C)cc3)n2)cc1	-4.1	-1.4	-7	32	nt	4.0	20	29%
NC(N)=NC(=O)c1nc(Cl)c(N)nc1N	?	0.4&0.3&-0.6	53&38&25	8&-6	-6.6&3.0&0.8&3.2	4.3&-1.6&-0.9	0&-11&-4	24%
CN1CCN(CC(=O)Nc2c(C#N)cnn2-c2ccccc2)CC1	1.3	0.0	-13	3	0.3	-2.7	-3	22%
N/C(=N\N=C\c1ccc(O)cc1)c1nonc1N	1.7	-5.8	-17	nt	-12	4.0	-7	-1%
Cc1ccccc1OCC(=O)NCCNC(=O)c1ccncc1	3.6	-1.2	-1	3	-2.5	-1.9	10	nt
COc1cc(CN2CCC(n3nccc3NC(=O)C3CCOC3)CC2)ccc1F (stereo not given)	1.8	0.9	-15	-2	-0.3	-0.5	3	0%
O=C(N/N=C/c1c[nH]c2ccccc12)c1ccccc1Cl	1.2	1.5	-15	-4	-10	0.8	2	2%
COc1ccc(C(=O)O/N=C(\N)c2ccccc2)cc1OC	-0.7	-1.2	10	4	-1.1	-0.2	-4	-3%
COc1ccc(-c2[nH]ncc2CN2CCCO2)cc1F	3.9	-0.2	-18	0	2.0	-4.1	-9	-11%
Cn1c(O)c(N=NC(=O)c2cccc(S(=O)(=O)N3CCCCC3)c2)c2ccccc21	1.4	-1.2	14	11	nt	-0.6	18	-3%
C[C@H](NC(=O)[C@@H]1CSC2c3ccccc3C(=O)N21)C(=O)NCCc1ccccc1 (stereo not given in full)	5.6	0.4	-11	-4	-0.4	-1.3	12	-11%
O=C(Cc1cccc(C(F)(F)F)c1)NCc1cccc(Cl)c1	0.0	0.3	-12	-21	-1.6	3.1	-6	nt
CC(=O)c1ccc(N(CC(=O)NCC2CCCO2)C(=O)CCC(=O)Nc2cc(C)on2)cc1 (stereo not given)	1.2	-0.1	-2	0	-2.0	-5.9	-1	nt

(continued)
SMILES	RanGTP-Impb inh	A1 inh	T cruzi repl	Beta apoptosis	MLL AF4-AF9 inh	LANA-H2A inh	Calb FLC	Vif A3G
NC(=O)N/N=C/c1cn(CC(=O)Nc2ccc(F)cc2)c2ccccc12	-1.7	-0.1	6	-8	1.0	-2.8	3	5%
CC(=O)n1cc([C@H]2C=C(C(=O)N3CCOCC3)O[C@@H](OCCCCO)C2)c2ccccc21	1.4	1.8	-22	-5	-14&0.8	-5.5	2	nt
COc1ccc(NC(=S)Nc2ccc(Oc3ccccc3)cc2)cc1	1.4	-0.1	6	3	nt	5.9	1	0%
CCN(CC)CCCNC(=S)N(Cc1cccnc1)Cc1cc2cc(C)cc(C)c2[nH]c1=O	-0.3	0.7	-23	-6	2.9	-0.4	1	-12%
Cc1cc(C)n2nc(-c3ccc(Cl)cc3)cc2n1	-3.2	-5.5	-7	5	4.9	0.8	-3	nt
CC(=O)Nc1ccc(C(=O)OCCc2ccccc2)cc1	2.2	-1.9	7	-6	-23	15*	-5	nt

Complete entries, quoted from the list. Values in the order: RanGTP-Impb inh	A1 inh	T cruzi repl	Beta apoptosis	MLL AF4-AF9 inh	LANA-H2A inh	Calb FLC	Vif A3G
Entry for COc1ccc(NC(=S)Nc2ccc(Oc3ccccc3)cc2)cc1 : 1.4	-0.1	6	3	nt	5.9	1	0%
Entry for CC(=O)Nc1ccc(C(=O)OCCc2ccccc2)cc1 : 2.2	-1.9	7	-6	-23	15*	-5	nt

Source: PubChem
